High-throughput results from PubChem BioAssay.
Beta2AR agonist = human beta-2 adrenergic receptor agonism by FAP; Am2.2-beta2AR cells, FAP receptor internalization, flow cytometry; reference of the scale not given here; response, % (test concentration not listed); actives 0.43% (n = 340,000);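 active = response above a set limit, near 3 SD of response in nonfluorescent compounds, cut at about 42% in these data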;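 also: stock transfer was 100 nL into about 11 µL; a reference agonist was the positive control; negative values mostly stem from fluorescent compounds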
Calb FLC = affects C. albicans growth with fluconazole; actives 0.57% (n = 300,000); growth inhibition, % (concentration not given with the values); C. albicans CaCi-2 (fluconazole-resistant clinical isolate) + fluconazole, Alamar Blue growth, 48 h;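 active = most replicates above 75%; inconclusive = exactly half above 75%; inactive = most below 75%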;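 also: all wells also contain fluconazole at 8 µg/ml as a sub-toxic cotreatment; 0% = median of DMSO wells and 100% = median of geldanamycin control wells; wells of about 8 µL received 7.5 nL stock; the first replicate is given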
Bfl-1 A1 inh = inhibitors of the anti-apoptotic protein A1, read as caspase activation; MEF A1-2A-BIM cells, Caspase-Glo 3/7 luminescence, 3 h; percent of clofoctol response, vehicle zero; caspase activation, % (concentration not given with the values); actives 0.066% (n = 330,000); AID 2462;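 active = over half of replicate activation scores above 10%, or exactly half above 10 with the replicate mean above 10; inconclusive = replicate mean below 10 yet half the replicates above 10; inactive = over half of replicates below 10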;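 also: wells of about 30 µL received 50 nL stock; many hits fall short of the cut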
RanGTP-Imp inh = inhibitors of RanGTP-importin-beta interaction, primary screen, biochemical, FRET, CFP-Ran, YFP-importin-beta, homogeneous; AID 2216; cell-free CFP-Ran/YFP-importin-beta FRET ratio; inhibition, % (test concentration not listed); actives 1.1% (n = 300,000);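 active = most replicates above 15%; inconclusive = exactly half above 15%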;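 also: 0% = DMSO wells and 100% = Ran loaded with GDP instead of GTP; wells of about 40 µL received 100 nL stock; the first replicate is given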
LANA-H2A inh = blocks KSHV LANA binding to histone H2A/H2B. cell-free LANA-H2A/H2B peptide, fluorescence polarization. inhibition, % (concentration not given with the values). actives 0.6% (n = 320,000). AID 2629; in the data active = inhibition mostly above about 10%, no sharp cut-off; inactive = mostly below about 6.7%;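 also: stock transfer was 7.5 nL into about 10 µL; 0% = median of vehicle wells and 100% = median of positive control wells; one replicate is shown; the record names a cut of 25% in any replicate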
Target sequence (Q9QR71 whole entry, looked up): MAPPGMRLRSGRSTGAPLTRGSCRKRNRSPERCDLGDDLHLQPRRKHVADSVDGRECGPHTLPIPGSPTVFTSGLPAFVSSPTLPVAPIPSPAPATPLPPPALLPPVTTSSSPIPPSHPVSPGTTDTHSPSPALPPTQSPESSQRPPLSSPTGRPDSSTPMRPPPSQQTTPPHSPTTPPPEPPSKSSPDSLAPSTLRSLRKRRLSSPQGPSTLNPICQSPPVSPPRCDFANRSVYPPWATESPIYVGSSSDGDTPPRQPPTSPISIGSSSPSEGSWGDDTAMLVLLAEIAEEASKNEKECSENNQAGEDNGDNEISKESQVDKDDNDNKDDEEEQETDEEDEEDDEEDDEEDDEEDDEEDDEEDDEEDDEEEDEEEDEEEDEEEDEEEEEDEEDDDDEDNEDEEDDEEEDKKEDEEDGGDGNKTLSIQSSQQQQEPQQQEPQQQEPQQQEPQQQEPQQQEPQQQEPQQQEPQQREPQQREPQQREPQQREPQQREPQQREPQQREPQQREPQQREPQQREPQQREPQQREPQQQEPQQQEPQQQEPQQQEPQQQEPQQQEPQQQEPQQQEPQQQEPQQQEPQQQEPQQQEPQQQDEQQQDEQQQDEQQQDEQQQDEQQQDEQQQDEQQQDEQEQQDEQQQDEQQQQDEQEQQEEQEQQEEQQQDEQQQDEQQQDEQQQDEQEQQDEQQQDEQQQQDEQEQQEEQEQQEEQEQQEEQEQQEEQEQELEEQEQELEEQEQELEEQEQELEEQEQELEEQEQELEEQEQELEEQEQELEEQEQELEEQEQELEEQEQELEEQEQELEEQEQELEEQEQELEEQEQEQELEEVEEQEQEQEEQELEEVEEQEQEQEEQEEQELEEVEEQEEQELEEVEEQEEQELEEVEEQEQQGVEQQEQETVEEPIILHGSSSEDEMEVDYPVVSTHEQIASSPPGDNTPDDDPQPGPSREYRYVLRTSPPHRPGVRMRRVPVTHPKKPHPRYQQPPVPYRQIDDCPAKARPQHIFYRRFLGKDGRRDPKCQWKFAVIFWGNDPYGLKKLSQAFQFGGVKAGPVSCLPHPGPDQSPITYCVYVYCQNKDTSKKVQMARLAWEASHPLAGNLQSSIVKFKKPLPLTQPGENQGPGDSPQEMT
T cruzi repl = T. cruzi replication inhibition; actives 1.4% (n = 300,000); inhibition, % (no concentration beside the values); T. cruzi beta-gal in NIH3T3, luminescence, 90 h;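 active = mean inhibition across valid replicates above about 55%, limit read from the data; inconclusive = mean below that limit but half or more replicates reach it; inactive = mean below it, under half of replicates reach it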;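 also: signal also drops with host cell toxicity which is not excluded here; 0% = plate median of DMSO wells and 100% = zero luminescence signal; higher percent means less beta-gal luminescence so fewer parasites; stock transfer was 50 nL into about 50 µL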
UCH37 inh = blocks the human deubiquitinase UCH37; purified proteasome/UCH37, Ub-AMC cleavage fluorescence; inhibition, % (test concentration not listed); actives 0.33% (n = 330,000);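 active = mean of two replicates above 20%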;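 also: 0% = compound-free wells with enzyme and 100% = wells lacking proteasome; stock transfer was 100 nL into about 20 µL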
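Schedule: 30 min plus 25 min, room temperature / Material: human UCH37 within purified proteasomes / Technique: AMC fluorescence intensity at 355/460 nm / Buffer or medium: pH 7.4 Tris-HCl (50 mM) with ovalbumin, ATP-MgCl2, DTT / Controls: wells without proteasome as full block, compound-free enzyme plus substrate as uninhibited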
Beta apoptosis = beta cell apoptosis inhibition; INS-1E cytokine-induced death, ATP luminescence, 48 h; percent of positive-control rescue, neutral wells zero; protection from apoptosis, % (no concentration beside the values); actives 0.8% (n = 300,000);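 active = all replicates at 75% or more, or half of them and the mean; inconclusive = half reach 75% but not the mean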;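 also: 0% = cytokine-treated negative control wells and 100% = positive control rescue; higher means more ATP so stronger rescue from cytokine killing; wells of about 40 µL received 100 nL stock; the first replicate is given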
* = called active by the depositor; ? = inconclusive; . = no result given. An unsorted share of the library. Share with any hit: about 4.3%.

1) COc1cc(S(=O)(=O)N2CCOCC2)c(OC)c(S(=O)(=O)N2CCOCC2)c1
2) COc1c2ccoc2c(OC)c2oc(=O)ccc12
3) COc1ccccc1/C=C/C=N/n1c(-c2ccc(C)cc2)n[nH]c1=S
4) O=C(NCCCn1ccnc1)C(F)(F)C(F)(F)C(=O)NCCCn1ccnc1
5) N#Cc1cc(N)ccc1Sc1ccc(Cl)cc1
6) COc1ccc(-c2nn(-c3ccccc3)cc2/C=N/NC(=O)c2cccc(S(=O)(=O)Nc3ccccc3OC)c2)cc1
7) Cc1ccc(NC(=O)C2CCCN(C(=O)c3ccc(Cl)cc3)C2)cc1 (stereo not given)
8) O=C(COC(=O)c1ccc[nH]c1=O)Nc1ccc(S(=O)(=O)N2CCCC2)cc1

assay / compound,1,2,3,4,5,6,7,8
Beta2AR agonist,-2,-3,8,-5,-8,-1,-5,-4
Calb FLC,0,-2,-11,?,-15,-8,0,2
Bfl-1 A1 inh,0.2,-0.3,0.2,1.5,0.4,0.3,0.5,0.1
RanGTP-Imp inh,5.5,0.7,2.5,3.4,1.3,-5.5,-2.3,-0.4
LANA-H2A inh,5.0,2.4,-0.1,1.8,-5.9,1.3,2.6,-6.8
T cruzi repl,18,-8,-9,1,13,-2,8,3
UCH37 inh,-9.0,-8.2,.,3.4,-11,.,-0.2,-1.0
Beta apoptosis,-6,0,-6,-2,2,10,7,-8

9) CC(=O)Nc1nc(-c2ccc(Cl)cc2)ns1
10) Cc1ccc(OCC(=O)NCCNC(=O)c2ccc(C)nc2)cc1
11) O=C1c2ccccc2NC(c2ccc3c(c2)OCO3)N1O (stereo not given)
12) CC(=O)c1c(C)[nH]c(C(=O)N2CCN(c3ccccn3)CC2)c1C
13) COc1ccc(COc2cc(-c3cccc(OC)c3)nc3ccc(NC(=O)c4ccccc4)cc23)cc1
14) O=C(Nc1nc2cc3c(cc2s1)OCO3)c1cccc(N2C(=O)CCC2=O)c1
15) CCNC(=O)COc1ccc(F)cc1C(=O)c1cnn(-c2ccccc2)c1
16) CC1CCN(c2ccc(NC(=O)c3cccnc3Cl)cc2)CC1

assay / compound,9,10,11,12,13,14,15,16
Beta2AR agonist,2,-1,-6,-7,5,-3,9,5
Calb FLC,-2,4,12,-12,26,-4,7,20
Bfl-1 A1 inh,2.0,0.8,-4.8,0.9,0.5,-1.0,-0.1,0.1
RanGTP-Imp inh,0.7,21*,1.8,-1.2,-0.7,1.7,1.7,-3.7
LANA-H2A inh,3.9,5.9,2.1,1.4,4.1,-1.0,3.6,-2.7
T cruzi repl,-11,-11,-11,-11,29,3,-7,-5
UCH37 inh,-0.3,6.1,-2.4,0.9,-2.5,-231,-0.9,-0.7
Beta apoptosis,3,3,9,-5,7,2,6,0

17) COCCn1c(SCC(=O)Nc2ncc(Cl)c(C)c2Cl)nc2ccccc21
18) COc1ccc(/C=N/NC(=O)c2nnn(-c3nonc3N)c2-c2cccc(OC)c2)cc1
19) COC(=O)c1c(N2C(=O)Nc3ccccc3N2O)sc(C)c1C
20) Cc1ccsc1C(=O)N1CCc2ccccc2C1
21) CCOC(=O)Cc1csc(SCc2nc3sc4c(c3c(=O)[nH]2)CCC4)n1
22) CN1C(=O)C(CC(=O)NC2CCCCC2)SC1=Nc1ccccc1 (stereo not given)
23) N#Cc1cccc(NC(=O)CN2C(=O)NC3(CCCCCC3)C2=O)c1
24) O=C1CN(S(=O)(=O)c2cc(Cl)ccc2Cl)CCN1

assay / compound,17,18,19,20,21,22,23,24
Beta2AR agonist,-10,6,1,1,-2,-2,2,6
Calb FLC,34,0,-1,-23,.,?,.,-1
Bfl-1 A1 inh,0.7,-1.6,1.9,0.0,0.2,-0.1,0.5,-0.1
RanGTP-Imp inh,-0.2,-0.6,-1.5,-6.1,.,0.1,.,1.6
LANA-H2A inh,-2.2,1.3,-1.3,6.3,-6.1,1.8,-2.5,9.5
T cruzi repl,-8,-1,-22,7,.,-21,.,-11
UCH37 inh,2.6,.,7.4,0.9,-5.0,5.7,1.7,1.8
Beta apoptosis,7,-9,-3,-2,-14,1,0,1

25) O=C(CCC(=O)N1CCOCC1)Nc1nnc(C2CCCCC2)s1
26) CCCN1CCN(CCCNC(=O)CN2C(=O)c3cccnc3Oc3ccc(Cl)cc32)CC1
27) CCN(CC)C(=O)C1CCC(CNS(=O)(=O)c2cccc3cccnc23)CC1 (stereo not given)
28) COC(=O)C1=C(C(=O)c2ccccc2)C(c2ccccc2)n2nnnc2N1 (stereo not given)
29) O=C(CN1CCOCC1)NCc1cc([N+](=O)[O-])ccc1O
30) Cc1cc(-c2ccccc2)n2ncnc2n1
31) O=C(Nc1ccc(-c2cnco2)cc1)c1ccccc1
32) Cn1c2ccccc2c2cc(/C=N/NC(=O)c3ccc(O)cc3O)ccc21

assay / compound,25,26,27,28,29,30,31,32
Beta2AR agonist,-2,10,-1,10,5,-6,-5,5
Calb FLC,-24,-2,3,-9,1,2,-3,-2
Bfl-1 A1 inh,-0.1,-0.6,1.3,-0.3,-0.3,0.1,-5.1,1.1
RanGTP-Imp inh,-1.9,8.8,-1.6,3.9,1.6,-1.8,0.7,2.7
LANA-H2A inh,6.9,5.1,3.1,1.1,5.4,0.7,5.3,1.0
T cruzi repl,-8,17,-7,-4,-10,-3,-4,-9
UCH37 inh,3.4,-0.2,3.2,3.9,8.5,3.1,-3.3,.
Beta apoptosis,5,-2,.,0,-2,-6,5,12

33) CCCCn1c(N)c(N(CC(C)C)C(=O)C2CC(=O)N(c3ccc(CC)cc3)C2)c(=O)[nH]c1=O (stereo not given)
34) CCN1C(=O)/C(=C2/Sc3ccccc3N2CC)S/C1=N\c1ncn[nH]1
35) CCOC(=O)c1c(CSc2ccc(C)cc2)n(C)c2cc(Br)c(O)c(CN(C)C)c12
36) Cc1ccn2cc(C34CC5CC(CC(C5)C3)C4)nc2c1
37) O=C(COC(=O)c1ccc2c(c1)S(=O)(=O)c1ccccc1C2=O)NC1CC1
38) COc1ccc2c(c1)cc(C(=O)N[C@H](C(=O)N1CCC[C@H]1C(=O)O)C(C)C)n2C
39) CCOC(=O)c1ccc(NC(=O)CC2COc3ccccc3O2)cc1 (stereo not given)
40) O=C(O)CC(NC(=O)C12CC3CC(CC(C3)C1)C2)c1cccc(Cl)c1 (stereo not given)

assay / compound,33,34,35,36,37,38,39,40
Beta2AR agonist,0,4,8,-17,2,3,-10,-1
Calb FLC,-2,1,0,24,19,-7,1,1
Bfl-1 A1 inh,0.2,-1.1,0.8,-0.7,0.4,-0.8,-5.2,1.3
RanGTP-Imp inh,-4.2,7.9,-8.8,5.1,4.6,0.2,?,-1.1
LANA-H2A inh,4.9,-2.0,1.9,0.5,4.6,-3.8,4.7,1.3
T cruzi repl,-7,18,42,17,-10,-14,-2,-16
UCH37 inh,-1.1,.,6.5,0.9,1.6,-90,-0.9,5.2
Beta apoptosis,-1,-16,3,.,-3,-3,1,-8

Shown field by field: part of the list above
33. CCCCn1c(N)c(N(CC(C)C)C(=O)C2CC(=O)N(c3ccc(CC)cc3)C2)c(=O)[nH]c1=O (stereo not given)
  Beta2AR agonist = 0	Calb FLC = -2	Bfl-1 A1 inh = 0.2	RanGTP-Imp inh = -4.2	LANA-H2A inh = 4.9	T cruzi repl = -7	UCH37 inh = -1.1	Beta apoptosis = -1

34. CCN1C(=O)/C(=C2/Sc3ccccc3N2CC)S/C1=N\c1ncn[nH]1
  Beta2AR agonist = 4	Calb FLC = 1	Bfl-1 A1 inh = -1.1	RanGTP-Imp inh = 7.9	LANA-H2A inh = -2.0	T cruzi repl = 18	UCH37 inh = .	Beta apoptosis = -16

35. CCOC(=O)c1c(CSc2ccc(C)cc2)n(C)c2cc(Br)c(O)c(CN(C)C)c12
  Beta2AR agonist = 8	Calb FLC = 0	Bfl-1 A1 inh = 0.8	RanGTP-Imp inh = -8.8	LANA-H2A inh = 1.9	T cruzi repl = 42	UCH37 inh = 6.5	Beta apoptosis = 3

36. Cc1ccn2cc(C34CC5CC(CC(C5)C3)C4)nc2c1
  Beta2AR agonist = -17	Calb FLC = 24	Bfl-1 A1 inh = -0.7	RanGTP-Imp inh = 5.1	LANA-H2A inh = 0.5	T cruzi repl = 17	UCH37 inh = 0.9	Beta apoptosis = .

(next part)
41) Cc1cc2nn(-c3cccc4ccccc34)nc2cc1N
42) Cc1cc(C)cc(NC2=NCC(=O)N2Cc2ccccc2)c1
43) CCc1ccc(OC(C)C(=O)Nc2ccccc2C(=O)N2CCOCC2)cc1 (stereo not given)
44) NC(=O)c1ncc(C(F)(F)F)cc1Oc1cccnc1
45) CCOc1ccc2nc(NC(=O)C34CC5CC(CC(NC(C)=O)(C5)C3)C4)sc2c1
46) COc1cc(OC)c(OC)cc1/C=C1/Cc2ccccc2C1=O
47) N#Cc1c(-c2ccco2)c2c([nH]c1=S)CCCC2
48) NC(=O)c1ccc2c(=O)n3c(-c4cccs4)csc3nc2c1

assay / compound,41,42,43,44,45,46,47,48
Beta2AR agonist,10,3,-4,7,26,3,-1,-5
Calb FLC,-12,26,31,-11,38,6,15,11
Bfl-1 A1 inh,0.1,0.8,0.0,1.1,-1.0,0.3,0.2,0.2
RanGTP-Imp inh,?,0.7,3.7,7.8,6.8,-55,?,0.0
LANA-H2A inh,0.2,3.7,-4.7,4.5,-5.1,-2.3,-6.3,-5.4
T cruzi repl,-3,14,-1,-9,7,-1,6,14
UCH37 inh,-382,1.5,2.3,2.9,0.3,6.0,-1.8,-3.9
Beta apoptosis,19,-2,-12,.,7,-17,-15,-4

49) O=C(c1cc(-c2cccc(Cl)c2)on1)N1CCCC1
50) CCCCCC(=O)Cc1cc(O)cc2c1C(=O)Oc1cc(O)c(C(=O)O)c(CCCCC)c1O2
51) Cc1nnsc1-c1c(C(=O)Oc2ccccc2)c(C)nn1-c1ccccc1
52) CCOCc1nnc(NC(=O)c2c(-c3ccccc3)noc2C)s1
53) CCOC(=O)C(CCCOc1cccc(CC)c1)C(=O)OCC
54) COc1ccc(/C=N/n2cnnc2SCCO)cc1OC
55) O=C(CN1CCOCC1)Nc1ccc([N+](=O)[O-])cc1
56) O=c1c2oc3ccccc3c2ncn1Cc1ccccc1F
57) CCN(CCC#N)c1ccc(/C=N/Nc2nc(C)cc(=O)[nH]2)c(C)c1
58) COc1cccc(C(=O)N=c2sc3cc(S(C)(=O)=O)ccc3n2C)c1

assay / compound,49,50,51,52,53,54,55,56,57,58
Beta2AR agonist,-10,.,-12,-4,8,6,-2,-15,6,3
Calb FLC,-8,-6,-5,1,-1,?,-4,-15,14,21
Bfl-1 A1 inh,-1.2,0.4,0.4,.,1.0,0.3,2.4,-0.3,0.0,-0.1
RanGTP-Imp inh,0.6,0.1,-0.5,-1.6,4.0,0.9,7.3,-6.1,-3.7,?
LANA-H2A inh,3.0,4.2,-5.9,.,-0.1,2.5,3.0,-3.2,0.2,0.0
T cruzi repl,-3,-12,4,-9,-1,-8,-6,17,-6,7
UCH37 inh,0.1,1.0,1.9,0.8,-0.4,.,5.5,5.3,.,-12
Beta apoptosis,-2,-3,-3,.,-3,2,-9,0,2,4
